Vaccinia mCherry: vaccinia inhibition (mCherry reporter); Potency, µM (series often up to 36.5 µM), without a hit: top-dose activity change, negative = inhibition, actives largely listed as inhibitors; 310,000 tested, 0.63% active; Vaccinia virus mCherry reporter infection, fluorescence; about a quarter of the inactives have no number; AID 720579; active = well fitted inhibition curve with a large enough effect; inconclusive = small, poorly fitted or top-dose-only effect; inactive = no such curve, though single readings can be large or run the other way; tested in A549 cells; note: nearly all actives have a fitted effect of over 35% in size; inactives centre near -10
Vaccinia Venus: inhibitors of vaccinia virus (Venus reporter); Vaccinia virus Venus reporter expression, fluorescence; Potency, µM (titrated, usually from 36.5 µM), for inactives: at the highest dose activity change, negative = inhibition, most hits filed as inhibitors; 330,000 tested, 0.46% active; AID 720580; active means well fitted inhibition curve with a large enough effect; inconclusive means small, poorly fitted or top-dose-only effect; inactive means no such curve, though single readings can be large or run the other way; tested in A549 cells; note: nearly all actives have a fitted effect of over 30% in size; inactives centre near -10
Starred values were filed as active, the others as inactive; [ ] = remark or other dose. % is set by controls: 0 for no effect and ±100 for the full control effect; potency is the fitted concentration of half-maximal effect.

Screening COc1ccc(C=NNC(=O)c2ccccc2OCc2ccc(F)cc2)c(OC)c1 returned Vaccinia mCherry -6% and Vaccinia Venus -7%.
`CCCCn1cnc2sc(-c3ccccc3)cc2c1=O` gave Vaccinia mCherry -25% and Vaccinia Venus -12%.
For COc1ccc(OCc2csc(N)n2)cc1 the results were Vaccinia mCherry -6% and Vaccinia Venus 0%.
For COc1ccccc1N(CC(O)Cn1c2ccccc2c2ccccc21)S(=O)(=O)c1ccccc1 (stereo not given) the results were Vaccinia mCherry -16% and Vaccinia Venus -5%.
Cc1occc1-c1nnc(SCC(=O)NCc2ccco2)n1CC(C)C was read as Vaccinia mCherry inactive and Vaccinia Venus -5%.
Screening CCOc1ccc(N2C(=O)CC(Cc3ccccc3OC)C2=O)cc1 (stereo not given) returned Vaccinia mCherry inactive and Vaccinia Venus -13%.
Screening CC(C)(c1ccccc1)c1ccc(OCCn2cnc3ccccc3c2=O)cc1 returned Vaccinia mCherry -14% and Vaccinia Venus -9%.
For CC(Sc1ccccc1)C(=O)NCC(c1ccco1)N1CCCCC1 (stereo not given) the results were Vaccinia mCherry inactive and Vaccinia Venus -4%.
CC(=O)Nc1cc2c(cc1C(=O)c1ccc(C)cc1)OCCO2 was read as Vaccinia Venus -15%.
Cc1c(Cl)cccc1Nc1nc(N)nc(CSC(=S)N2CCOCC2)n1 was read as Vaccinia mCherry -8% and Vaccinia Venus -6%.
Screening O=C([O-])c1cc(-c2ccccc2)cc(-c2ccccc2)[n+]1CCc1ccc(Cl)cc1 returned Vaccinia mCherry -23% and Vaccinia Venus inconclusive.
Screening O=C(O)COc1cccc2nsnc12 returned Vaccinia mCherry inactive and Vaccinia Venus -10%.
Screening O=C(O)COc1ccccc1/C=N/NC(=O)CN1CCN(Cc2ccc(Cl)cc2)CC1 returned Vaccinia mCherry inactive[7.34 µM] and Vaccinia Venus 1%[7.34 µM].
`S=C1NCCOCCNC(=S)NCCOCCOCCN1` gave Vaccinia mCherry inactive and Vaccinia Venus -9%.
For O=[N+]([O-])c1ccc(CNC2CCCc3ccccc32)cc1 (stereo not given) the results were Vaccinia mCherry -21% and Vaccinia Venus -10%.
CCC(C)N1CCN(S(=O)(=O)Cc2ccccc2)CC1 (stereo not given) was read as Vaccinia mCherry -2% and Vaccinia Venus 5%.
Screening CCOC(=O)c1c(-c2ccccc2)nnn1-c1nc(OC)nc(N2CCOCC2)n1 returned Vaccinia Venus -6%.
Screening CCOC(=O)C1CCN(c2c(Nc3cc(C)cc(C)c3)c(=O)c2=O)CC1 returned Vaccinia mCherry inconclusive and Vaccinia Venus -19%.
For CCN1CCN(c2ccc(S(=O)(=O)N3CCOCC3)cc2NC(=O)c2cccc([N+](=O)[O-])c2)CC1 the results were Vaccinia mCherry inconclusive and Vaccinia Venus -2%.
`O=C(CCCc1ccccc1)NCc1ccc(Cl)cc1` gave Vaccinia mCherry inactive and Vaccinia Venus -8%.
Cc1cccc([C@@H]2[C@@H]3C(=O)N(Cc4ccccc4)C(=O)[C@@H]3[C@]3(Cc4ccccc4)C(=O)N(c4ccc(C(F)(F)F)cc4)C(=O)N23)c1 was read as Vaccinia mCherry inactive and Vaccinia Venus -23%.
For COCC1CCN(C(=O)c2cc(COc3ccc(-n4cncn4)cc3)on2)CC1 the results were Vaccinia mCherry inactive and Vaccinia Venus -15%.
Screening Clc1ccc(OCCCn2ccnc2)c(Br)c1 returned Vaccinia mCherry inactive and Vaccinia Venus -8%.
Screening COc1ccc(C(=O)Cn2c(=O)n3nc(CCn4nc(C)cc4C)nc3c3cc(OC)c(OC)cc32)cc1 returned Vaccinia mCherry -10% and Vaccinia Venus -15%.
`CC(=O)N[C@@H](C)C(=O)OC(C)C(=O)Nc1cccc([N+](=O)[O-])c1` (stereo not given in full) gave Vaccinia mCherry -12% and Vaccinia Venus -13%.
For FC(F)(F)c1ccccc1NC(=S)Nc1cccc(Cl)c1 the results were Vaccinia mCherry 11% and Vaccinia Venus 9%.
For O=C1c2ccccc2C(=O)N1c1cc([N+](=O)[O-])ccn1 the results were Vaccinia mCherry -15% and Vaccinia Venus 1%.
Screening OC(c1cccc(CN2CCCCC2)c1)c1ncc(-c2ccccc2Cl)[nH]1 (stereo not given) returned Vaccinia mCherry -19% and Vaccinia Venus 5%.
For Clc1cccc(NCc2nnc(SCc3ccccc3)o2)c1 the results were Vaccinia mCherry -8% and Vaccinia Venus -22%.
`O=C(CNS(=O)(=O)c1cccs1)NCCc1ccc(Cl)cc1` gave Vaccinia mCherry -2% and Vaccinia Venus 0%.
Screening O=C(COC(=O)CNS(=O)(=O)c1ccc(Br)cc1Cl)NC1CC1 returned Vaccinia mCherry inactive and Vaccinia Venus -8%.
Screening CCCCCn1c(CNC(=O)CC)nc2ccccc21 returned Vaccinia mCherry -21% and Vaccinia Venus 4%.
For O=C(NCCc1nnc2ccc(N3CCCCCC3)nn12)c1ccccc1 the results were Vaccinia mCherry inactive and Vaccinia Venus -15%.
CCOC(=O)c1cnc(SC)nc1Sc1ccccc1Cl was read as Vaccinia Venus -12%.
`COc1cccc(C(=O)NCC(=O)NNc2ncnc(N)c2[N+](=O)[O-])c1` gave Vaccinia mCherry -2% and Vaccinia Venus 3%.
O=C1CCC2(CCCCC2)N1 was read as Vaccinia mCherry -5% and Vaccinia Venus -10%.
Cc1cccc(N2CCN(C(=O)C3CCCN(S(=O)(=O)c4cccc5nsnc45)C3)CC2)c1C (stereo not given) was read as Vaccinia mCherry -12% and Vaccinia Venus 5%.
COc1ccc(/C=C/C(=O)O)cc1S(=O)(=O)NC1CCS(=O)(=O)C1 (stereo not given) was read as Vaccinia mCherry -9% and Vaccinia Venus -2%.
O=C(NCC(c1cccs1)N1CCOCC1)c1ccc(Br)o1 (stereo not given) was read as Vaccinia Venus -21%.
`COC(=O)c1ccc2c(=O)n(CCCCCC(=O)N3CCN(c4cc(C)ccc4C)CC3)c(=O)[nH]c2c1` gave Vaccinia mCherry inactive and Vaccinia Venus -12%.

Of the compounds above, 4 have an aryl thioether with sulfur outside any ring:
Cc1occc1-c1nnc(SCC(=O)NCc2ccco2)n1CC(C)C was read as Vaccinia mCherry inactive and Vaccinia Venus -5%.
For CC(Sc1ccccc1)C(=O)NCC(c1ccco1)N1CCCCC1 (stereo not given) the results were Vaccinia mCherry inactive and Vaccinia Venus -4%.
For Clc1cccc(NCc2nnc(SCc3ccccc3)o2)c1 the results were Vaccinia mCherry -8% and Vaccinia Venus -22%.
CCOC(=O)c1cnc(SC)nc1Sc1ccccc1Cl was read as Vaccinia Venus -12%.

(listing goes on)
Screening COc1cc(S(=O)(=O)N2CCOCC2)ccc1NC(=O)COC(=O)C12CC3CC(CC(C3)C1)C2 returned Vaccinia Venus -4%.
For CC(C(=O)Nc1ccccc1-c1ccccc1)N1CCN(C(=O)c2ccccc2)CC1 (stereo not given) the results were Vaccinia mCherry inactive and Vaccinia Venus -29%.
COc1ccccc1-c1ccc(/C=N/O)o1 was read as Vaccinia mCherry -15% and Vaccinia Venus -9%.
For Cc1nc2sc(C(c3ccc(F)cc3)N3CCOCC3)c(O)n2n1 (stereo not given) the results were Vaccinia mCherry inactive and Vaccinia Venus -26%.
`COc1ccc(C(=O)OCc2cc3cccc(C)c3[nH]c2=O)cc1` gave Vaccinia Venus 2%.
Cc1cc(SCC(=O)OC/C(O)=C(\C#N)c2nc3ccccc3[nH]2)c(C)cc1Br was read as Vaccinia mCherry 14% and Vaccinia Venus -6%.
`COCCNC(=O)CCCn1c(=O)c2ccccc2n(Cc2ccccc2C#N)c1=O` gave Vaccinia mCherry -16% and Vaccinia Venus -12%.
Screening COc1ccc(Cl)cc1N(C)C(=O)C(=O)Nc1ccc2nc3n(c(=O)c2c1)CCCCC3 returned Vaccinia mCherry 1% and Vaccinia Venus -7%.
Nc1ncnc2nc(SCCC(=O)O)[nH]c12 was read as Vaccinia mCherry -8% and Vaccinia Venus -18%.
For CCOc1ccc(CCN2C(=S)N([C@@H](Cc3ccccc3)CN3CCC[C@@H]3CN3C(=S)NC[C@@H]3CC(C)C)C[C@@H]2Cc2ccccc2)cc1 the results were Vaccinia mCherry -18% and Vaccinia Venus -18%.
For CCCCC(=O)NC(c1ccco1)c1cc(Cl)c2cccnc2c1O (stereo not given) the results were Vaccinia mCherry 13µM* and Vaccinia Venus inconclusive.
For CCP(=S)(CC)c1ccc(N(C)C)cc1 the results were Vaccinia mCherry -1% and Vaccinia Venus -3%.
`CS(=O)(=O)N1CCCCC1c1cc(C(=O)Nc2ccccc2Cl)no1` (stereo not given) gave Vaccinia mCherry 4% and Vaccinia Venus -6%.
Screening Cc1ccccc1-c1cc(C(=O)NCC2CC2)n(CC2CC(c3cccnc3)=NO2)n1 (stereo not given) returned Vaccinia mCherry -15% and Vaccinia Venus 0%.
COc1ccccc1N1CCN(C(=O)c2cnc(N3CCCCC3)c3ccccc23)CC1 was read as Vaccinia mCherry inconclusive and Vaccinia Venus -26%[7.34 µM].
Cc1ccc(C)c(NC(=O)C(Sc2nnc(-c3cccs3)o2)c2ccccc2)c1 (stereo not given) was read as Vaccinia mCherry -6% and Vaccinia Venus -6%.
`CCCCOc1ccc(N=Cc2ccc[nH]2)cc1` gave Vaccinia mCherry inactive and Vaccinia Venus -2%.
Screening Cc1ccc2cc(CN(c3ccccc3)S(=O)(=O)c3ccccc3)c(=O)[nH]c2c1 returned Vaccinia mCherry inactive and Vaccinia Venus -5%.
`Cc1nc2sc(C(c3cccs3)N3CCN(Cc4ccccc4)CC3)c(O)n2n1` (stereo not given) gave Vaccinia mCherry -5% and Vaccinia Venus 1%.
COc1ccc(Cc2n[nH]c(=S)o2)cc1 was read as Vaccinia mCherry inactive and Vaccinia Venus -14%.

Looked up by compound from the entries so far:
For CCP(=S)(CC)c1ccc(N(C)C)cc1 the results were Vaccinia mCherry -1% and Vaccinia Venus -3%.
`CCCCOc1ccc(N=Cc2ccc[nH]2)cc1` gave Vaccinia mCherry inactive and Vaccinia Venus -2%.
For CCCCC(=O)NC(c1ccco1)c1cc(Cl)c2cccnc2c1O (stereo not given) the results were Vaccinia mCherry 13µM* and Vaccinia Venus inconclusive.

Later entries
Cc1ccc(CNC(=O)C(=O)NCC(c2cccnc2)N2CCN(c3ccccc3F)CC2)cc1 (stereo not given) was read as Vaccinia mCherry inconclusive and Vaccinia Venus inconclusive.
COc1ccccc1CC1(C)C(=O)Nc2ccc(S(=O)(=O)NC3CCCCC3)cc21 (stereo not given) was read as Vaccinia mCherry inactive and Vaccinia Venus -12%.
Screening CC1CCCN(c2csc3ccc(F)cc3c2=O)C1 (stereo not given) returned Vaccinia mCherry -11% and Vaccinia Venus -18%.
`Fc1cccc(Cl)c1/C=N/Nc1ccccn1` gave Vaccinia mCherry inactive and Vaccinia Venus -7%.
`Cn1c(=O)c(=O)n(C)c2cc(N3CCOCC3)c(NS(=O)(=O)c3ccc(Cl)cc3)cc21` gave Vaccinia mCherry -6% and Vaccinia Venus 5%.
For CC(=O)Oc1oc(-c2ccccc2)nc1/C=N/c1ccccn1 the results were Vaccinia mCherry inactive and Vaccinia Venus 0%.
`COc1cccc(CNC(=O)c2ccc(S(=O)(=O)N3CCCCC3)cc2)c1` gave Vaccinia mCherry -4% and Vaccinia Venus -1%.
`O=C(CN1C(=O)S/C(=C\c2cc(Cl)c(O)c(Cl)c2)C1=O)Nc1ccccc1` gave Vaccinia mCherry inactive and Vaccinia Venus 2%.
For COCc1[nH][nH]c(=O)c1C=Nc1ccccc1 the results were Vaccinia mCherry -6% and Vaccinia Venus 1%.
Screening Cc1ccc(C)c(Nc2c(F)c(F)c(F)c(F)c2C(=O)O)c1 returned Vaccinia mCherry inactive and Vaccinia Venus -19%.
`COC(=O)c1cccc(NC(=O)c2ccc3c(c2)C(=O)N(Cc2cccnc2)C3=O)c1C` gave Vaccinia mCherry -15% and Vaccinia Venus -2%.
`O=C(NC1=NCCS1)c1csc2ccccc12` gave Vaccinia mCherry -5% and Vaccinia Venus -15%.
`CC1(C(=O)NCCN2CCOCC2)C=CC2(CCCCC2)N1C(=O)c1ccccc1` (stereo not given) gave Vaccinia mCherry inactive and Vaccinia Venus -2%.
For O=C(CSc1ccc2nnc(-c3cccnc3)n2n1)N1CCOCC1 the results were Vaccinia mCherry inactive and Vaccinia Venus -2%.
Screening COC(=O)[C@@H]1OC(=O)[C@H]2O[C@@]23[C@@]1(C)CC[C@@H]1[C@@]2(C)C=CC(=O)OC(C)(C)[C@@H]2CC(=O)[C@]13C returned Vaccinia mCherry inactive and Vaccinia Venus -9%.
CC1CCN(C(=O)c2c(NC(=O)c3ccccc3Cl)sc3c2CCC(C(C)(C)C)C3)CC1 (stereo not given) was read as Vaccinia mCherry -16% and Vaccinia Venus -10%.
`COc1cccc(NC(=O)C23CCC(C)(C(=O)O2)C3(C)C)c1` (stereo not given) gave Vaccinia mCherry -10% and Vaccinia Venus -5%.
For COc1ccc(CN2CCN(Cc3c[nH]c4ccccc34)CC2)cc1 the results were Vaccinia mCherry inconclusive and Vaccinia Venus -17%.
`COC(=O)C1=C(c2ccc(F)cc2OCc2ccccc2)C[C@@H]2CC[C@H]1N2C(=O)NCc1ccc(C)cc1` gave Vaccinia mCherry -3% and Vaccinia Venus inconclusive.
Cc1cccc(C)c1NC(=O)CC1SC2=NCCN2C1=O (stereo not given) was read as Vaccinia mCherry -18% and Vaccinia Venus -15%.
For Cc1ccc(-c2csc(/C(C#N)=C(\O)CCl)n2)cc1 the results were Vaccinia mCherry 10% and Vaccinia Venus 0%.

Random draw from the library; about 0.82% have a hit in one of these screens.
